# Assay outcomes (PubChem)
# NPYLR7 agonist = activates Aedes aegypti NPYLR7 receptor | HEK293T NPYLR7/Galpha15, GCaMP6s calcium fluorescence | activation, % at 10 µM | AID 1259423 | actives 0.15% (n = 270,000); in the data active = activation above about 40%;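 note: 0% = vehicle and 100% = reference agonist at the receptor; some compounds past the cut are filed as inactive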
# NPYLR7 agonist max-min = second read-out of NPYLR7 agonist, no call of its own (marks repeat the call); activation, %; measured here: Max-Min RFU normalised activation; some inactives read as strong as hits;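 span of the calcium signal over five minutes; 0% = vehicle and 100% = native peptide agonist; compound fluorescence can raise it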
# An asterisk follows results filed as active; & = joins results of further samples. Not all compounds are listed. The share of hits here may be higher or lower than overall.
mol	NPYLR7 agonist	NPYLR7 agonist max-min
O=C(CCc1ccccc1)NC1CCN(c2ccccc2C(=O)NCc2ccc3c(c2)OCO3)CC1	-5	-2
CCn1cc(CN2CCC(N3CCC(C(=O)NCC4CCCO4)CC3)CC2)cn1 (centres undefined)	5&8	3&3
O=C(c1ccc(Cl)cc1)n1sc(=O)c2ccccc21	2	1
CCCCn1c(=O)n(C)c(=O)c2c(=S)nc(-c3ccccc3Cl)[nH]c21	-2	-5
CC(C)CC(C(=O)NC1CCCC(C)C1)N1CCCCC1=O (centres undefined)	0	-2
COc1ccc2cc(C=C3COc4ccccc4C3=O)ccc2c1	1	3
Cn1nc(C(=O)N2CCC(N3CCCC(C(=O)N4CCCC4)C3)CC2)ccc1=O (centres undefined)	-7	-8
COc1cccc(CNC(=O)C2CCN(C(=O)[C@@H](C)NC(=O)c3cc(C)nn3C)CC2)c1	9	26
COCCNC(=O)C(NC(=O)c1ccc(F)cc1)C1CCN(C(=O)c2cccc(Br)c2)CC1 (centres undefined)	4	2
CC(C)C(=O)N1CCCC(C(=O)NC(C)c2ccccn2)C1 (centres undefined)	-5	-5
Cc1cc(C)cc(Cn2c(C)c(C(=O)NCc3ccccc3C(F)(F)F)sc2=O)c1	29	23
COc1ccc(C2=Nn3c(nnc3C(F)(F)F)SC2)cc1	2	0
CC(=O)Nc1ccc(Nc2cc(C)nc3c(-c4ccccc4)c(C)nn23)cc1	-3	-5
NC(=O)c1nc(CCc2ccccc2)nc2c1[nH]c(=O)n2-c1ccc2c(c1)OCO2	-11	-13
CCOC(=O)c1nn(-c2ccccc2)c(=O)cc1OCC(=O)NCc1ccc2c(c1)OCO2	10	7
c1cc(CNC2CCCCCC2)cs1	2	0
COc1ccc(Cl)cc1NC(=O)CCC1CCCN(C(=O)CCN2CCCO2)C1 (centres undefined)	-2	-3
O=C(Cc1ccccc1)NCc1nnnn1C1CCCCC1	7	4
C=CCNC(=O)NC(=O)CSc1ncnc2scc(-c3ccccc3)c12	-1	-6
CC(=O)Oc1ccc(N2C(=O)C3C4C=CC(C4=C(C)C)C3C2=O)cc1 (centres undefined)	-3	-3
CC(CC#N)N(C)C(=O)CC(C)(C)c1ccccc1 (centres undefined)	0	-5
CC(=O)N[C@@H]1C[C@H](Cc2ccccc2)O[C@H](c2c(Cl)nc3sccn23)C1	10	8
CCCn1ncc(-c2ccnc(NC3CC(C)(C)NC(C)(C)C3)n2)c1C	13	1
Cc1c(C)n2c3c(=O)[nH]c(=O)n(C)c3nc2n1CCCNc1ccc(Oc2ccccc2)cc1	2	-3
CN1CCc2c(sc(NC(=O)CS(=O)(=O)c3ccccc3)c2-c2nc3ccccc3s2)C1	20	19
Cc1ccc2c(c1)CCN1C(=O)CN(C(=O)c3ccc(-c4cccc(Cl)c4)s3)CC21 (centres undefined)	-4	12
O=C(c1ccc(Cl)cc1Cl)N1CCN(c2ccccn2)CC1	-2	-5
Cc1cc(=O)[nH]c(-n2nc(C)c(CCC(=O)NC(C)CCc3ccccc3)c2C)n1 (centres undefined)	3	-4
CCc1nc2ccc(C(=O)NCCN3CCCC3)cn2c1N(CC)Cc1ccc(OC)c(OC)c1	10	11
CN(Cc1n[nH]c2c1CCCC2)c1ccc(-c2nccn2C)nn1	7	5
N#Cc1cnn(CCNC(=O)N2CCC3(CCCCC3)C2)c1	1	0
CCOC(=O)CC(=O)CSc1nc(-c2cccs2)cc(-c2ccc(OC)cc2)c1C#N	-6	-10
CCOC(=O)CCC(=O)Nc1ccc(-c2cccc(-c3ccc4c(c3)OCCO4)n2)cc1	18	27
O=C(/C=C/c1ccccc1Br)Nc1cccc(CN2CCOCC2)c1	8	5
S=C(NC1CCCCC1)N1CCC(C2C=NC=N2)CC1 (centres undefined)	0	-6
CN(C)S(=O)(=O)c1ccc(C(=O)NCc2c(-c3ccc(F)cc3)nc3n2CCS3)cc1	-3	-3
Cc1cccc2cc(CO)c(N3CCCC(CO)(Cc4ccccc4)C3)nc12 (centres undefined)	13&-3	3&-3
CC(C)C1CN(c2cncc(C(=O)N3CCCC3)n2)CCCN1CC1CC1 (centres undefined)	-2	-3
Cc1nnsc1CN(C)C(=O)C1CC(=O)N(CC(C)C)C1 (centres undefined)	1	0
CN(C)S(=O)(=O)c1cccc(C(=O)NNC(=O)CC2CCCC2)c1	1	4
CC(NC(=O)c1cccc(Nc2cnccn2)c1)C1COc2ccccc21 (centres undefined)	9	8
C=CCN(Cc1csc(COc2cccc(C)c2C)n1)C(=O)NCC	-2	12
O=C(CN1C(=O)C(=O)N(CCC2=CCCCC2)C1=O)NC1CCS(=O)(=O)C1 (centres undefined)	-2	-4
CCOC(=O)C1CCN(C(=O)CCCSc2ccc(NC(C)=O)nn2)CC1	-2	-4
Cc1cccc2nc(-c3ccc(C(F)(F)F)cc3)c(NC3CCCCC3)n12	17	22
CCCn1c(N)c(N(CCOC)C(=O)C(F)(F)F)c(=O)n(CC(=O)NC(C)CC)c1=O (centres undefined)	3	7
CCC1CN(C(=O)c2cnc3ccnn3c2C)CCC(=O)N1Cc1ccccc1 (centres undefined)	-2	-2
COC(=O)CC(NC(=O)c1cccc(NC(C)=O)c1)c1cccs1 (centres undefined)	-1	-3
O=C(C=Cc1ccsc1)NNC(=O)c1ccccc1F	8	7
CCn1nc(C)c(NC(=O)CN(Cc2sccc2C)C2CC2)c1C	-2	-3
Cc1nc(NCCNS(=O)(=O)c2c(C)noc2C)cc(-n2ccnc2C)n1	-19	-19
CCOP(=O)(Cc1ccc(NC(=O)NC2CCCCC2)cc1)OCC	-14	-19
CCOc1ccc2c(=O)c(Oc3ccccc3Br)coc2c1	-12	-16
Cn1c(SCc2csc(-c3cccs3)n2)nnc1C1CC1	4	9
COCCNC(=S)NCCCN(C)c1ccccc1	-10	-16
COc1ccc(C(=O)Nc2cccc(NC(C)=O)c2)cc1[N+](=O)[O-]	-2	-3
COc1cc(NC(=O)C(C2CCCC2)N2CCN(C(=O)/C=C/c3ccccc3)CC2)cc(OC)c1 (centres undefined)	1	7
N[C@@H](CCCC(=O)O)C(=O)O	3	-7
O=C1NC(=Nc2ccc(Br)cc2)SC1Cc1cccc(Cl)c1Cl (centres undefined)	-1	-3
Cc1ccc2nc(C)c(NC(=O)COc3ccccc3)c(=O)n2c1	5	3

# (continued)
structure	NPYLR7 agonist	NPYLR7 agonist max-min
N#Cc1ccc(NC(=O)N(CC(=O)N2CC(=O)N(c3ccc(F)cc3)C2)C2CC2)cc1	14	13
COC(=O)c1ccc(NC(=O)c2cc(-c3ccco3)nc3c2c(C)nn3C2CCS(=O)(=O)C2)cc1 (centres undefined)	4	8
CCCCNS(=O)(=O)c1ccc(S(=O)(=O)N(C)C)cc1	-2	-4
C=CCN1C(=O)NC(c2cc(OC)ccc2OC)C2=C1CN(Cc1cccnc1)C2=O (centres undefined)	4	18
CN(C)CC(C)(C)CNC(=O)c1cncn1-c1cccc(-c2ccccc2C(F)(F)F)c1	0	8
O=C(Nc1ccccc1)c1cccc(S(=O)(=O)N/N=C\c2ccccc2)c1	-6	-8
C=C(C)CN1Cc2ccccc2NCCC1=O	2	13
CC1(C)O[C@@H]2C[C@@](OCc3ccc(F)cc3)(C(=O)NCc3ccco3)CC(OCc3ccc(C(F)(F)F)cc3)[C@@H]2O1 (some centres undefined)	4	8
CC(c1ccc(S(N)(=O)=O)cc1)N(C)c1ncccn1 (centres undefined)	2	3
Clc1cccc(Cl)c1CSc1nnc2ccccn12	5	10
O=C(NN1C(=O)c2ccccc2C1=O)c1cnc(-c2ccco2)s1	18	10
Cc1cccc(OCc2ccc(-c3nc(C#N)c(NCCCN4CCOCC4)o3)o2)c1	-1	11
Nc1nc2ccc(SC(F)F)cc2s1	-2	-4
CCCCN(CC(=O)N(Cc1cccn1Cc1ccccc1Cl)C1CCCCC1)S(=O)(=O)c1ccc(C(C)(C)C)cc1	-4	5
O=C1NCC(CSc2nnc(Nc3ccccc3F)s2)O1 (centres undefined)	2	1
CC1CN(C(=O)NC(C)c2ccc(-c3cncnc3)cc2)CCO1 (centres undefined)	7	6
COc1cn(CC(=O)NCc2ccco2)c(CSc2nnnn2C)cc1=O	-6	-11
N#CC(C(=N)C(C#N)C#N)=C(C=Cc1cccs1)C1CC1	0	40
O=C(CC1CCCC1)NCCCNC(=O)CC1CCCC1	3	0
CN(CC(=O)NCc1ccco1)C(=O)COc1ccc(F)c(Cl)c1	-2	-2
CCCc1[nH]n(-c2ccc(F)cc2)c(=O)c1C1=C([n+]2ccc(C)c(C)c2)C(=O)N(CCOC)C1=O	-4	0
Cc1sc2[nH]c(=S)n(C3CCCC3)c(=O)c2c1C	3	9
COc1cc(-c2cnc3ccc(NCc4ccco4)nn23)cc(OC)c1OC	-3	-7
Cc1[nH]n(-c2nc3ccccc3[nH]2)c(=O)c1CCc1ccccc1	-12	-26
COc1ccc(C(=O)Nc2c3c(nn2C(C)(C)C)CS(=O)C3)cc1 (centres undefined)	-1	-1
CN1CCC2(CC1)CN(C(=O)c1ccc(Cn3cnnn3)cc1)CCN2C	14	13
Cc1csc(C(C#N)C(=O)CSc2nc3sc4c(c3c(=O)n2CC2CCCO2)CCC4)n1 (centres undefined)	4	3
CCO[C@H]1CNC[C@@H]1NC(=O)c1cc(CN2CCCC2)c(CC)o1	6	3
CCN(Cc1cccnc1)C(=O)CC1C(=O)NCCN1Cc1ccc(C)o1 (centres undefined)	12	9
COc1ccc2c(c1)CCc1c(-c3ccc(C(=O)NCCF)cc3)n[nH]c1-2	4	0
CS(=O)(=O)c1ccc(C(NC(=O)C(c2ccccc2)C2CCCCC2)c2ccc3c(c2)CCO3)cc1 (centres undefined)	-9	-18
O=C(c1cccs1)N1N=C(c2cccs2)CC1c1ccc(Cl)o1 (centres undefined)	8	7
CC1CCc2c(sc(NC(=O)Cn3cnc([N+](=O)[O-])n3)c2C#N)C1 (centres undefined)	-8	-20
CNC(=S)NC(C)C1CC2CCC1C2 (centres undefined)	1	0
Cn1ccc(CC(=O)N2CCCC(C(=O)Nc3ccc(-c4ccco4)cc3)C2)c1 (centres undefined)	-1	-4
COCCNC(=O)c1ccc(CSc2nc(C)cc(N3CCN(C/C=C/c4ccccc4)CC3)n2)cc1	12	14
COc1ccccc1C(=O)Nc1cccc(-c2nc3ccc(C)cc3o2)c1	1	3
COc1cc(NC(=O)CN2CCCC2Cn2cccn2)cc(OC)c1 (centres undefined)	26	9
COCC1(C(=O)NCc2cccnc2Oc2ccc(C)nc2)CCC1	4	-1
CCCCNC(=O)CSc1nnc(-c2ccc(OCC)cc2)o1	-2	-6

# Filtered by structure, the compounds so far with two or more sulfur atoms
structure	NPYLR7 agonist	NPYLR7 agonist max-min
C=CCNC(=O)NC(=O)CSc1ncnc2scc(-c3ccccc3)c12	-1	-6
CN1CCc2c(sc(NC(=O)CS(=O)(=O)c3ccccc3)c2-c2nc3ccccc3s2)C1	20	19
CCOC(=O)CC(=O)CSc1nc(-c2cccs2)cc(-c2ccc(OC)cc2)c1C#N	-6	-10
CN(C)S(=O)(=O)c1ccc(C(=O)NCc2c(-c3ccc(F)cc3)nc3n2CCS3)cc1	-3	-3
Cn1c(SCc2csc(-c3cccs3)n2)nnc1C1CC1	4	9
CCCCNS(=O)(=O)c1ccc(S(=O)(=O)N(C)C)cc1	-2	-4
Nc1nc2ccc(SC(F)F)cc2s1	-2	-4
O=C1NCC(CSc2nnc(Nc3ccccc3F)s2)O1 (centres undefined)	2	1
Cc1sc2[nH]c(=S)n(C3CCCC3)c(=O)c2c1C	3	9
Cc1csc(C(C#N)C(=O)CSc2nc3sc4c(c3c(=O)n2CC2CCCO2)CCC4)n1 (centres undefined)	4	3
O=C(c1cccs1)N1N=C(c2cccs2)CC1c1ccc(Cl)o1 (centres undefined)	8	7

# Remaining list, next part.
structure	NPYLR7 agonist	NPYLR7 agonist max-min
Cc1ccc(NS(=O)(=O)c2ccc(C(=O)NC(C)C(N)=O)cc2)cc1C (centres undefined)	-1	-1
COc1ccc(C2(C)NC(=O)N(CC3CCCCC3)C2=O)cc1 (centres undefined)	1	-1
COC(=O)c1cccc(NC(=O)CCc2ccccc2C#N)c1	5	-1
Cc1cc(C(=O)NC2CCN(Cc3ccccc3)CC2)nc2cc(C(C)(C)C)nn12	1	6
COC(=O)Cn1c(=NC(=O)c2ccc(Cl)s2)sc2cc(F)ccc21	1	-1
Cc1cc(CCC(=O)NCC(N)=O)ccc1Br	-9	-14
COc1ccc(C2(C)NC(=O)N(CC(=O)NC(C)C(C)C)C2=O)cc1 (centres undefined)	-3	-9
c1ccc(OCCCN2CCCc3c2[nH]c2ccccc32)cc1	-3	-10
O=C(c1ccnc(N2CCCC2)n1)N1CCCC(n2cncn2)C1 (centres undefined)	5	9
O=C(Nc1cccc(Cn2ccnc2)c1)C1CCCC1	-4	-6
Cc1ccc2c(c1)nc(C(F)(F)F)n2C1CCN(C(=O)C2CCCC2)CC1	-4	-7
CN(C(=O)CSc1nnc(N2CCCCC2)n1C1CC1)c1ccccc1	2	13
CC(OC(=O)CCc1ccc2c(c1)OCCO2)C(=O)Nc1ccc(Cl)cn1 (centres undefined)	9	3
CCOC(=O)c1nn(CC)c(Oc2ccc(N)cc2S(=O)(=O)NC(C)(C)C)c1C	19	3
CC(C)c1nc2scc(-c3ccccc3Cl)c2c(=O)[nH]1	-2	0
O=C(CNC(=O)c1cccc([N+](=O)[O-])c1)Nc1ccc(N2CCCC2)cc1	12	13
Cc1ccc(C)c(NC(=O)CSc2nnc(CNC(=O)c3ccco3)n2-c2ccc(F)cc2)c1	10	5
O=C(OCc1nc(C(=O)NCCOc2ccccc2)cs1)c1ccccc1	-3	-9
Nc1nc(CN2CCN(c3ccc(F)cc3)CC2)cs1	2	-1
CC(C)=CC(=O)N1CCC2(CCCN(Cc3ccc(F)cc3)C2)C1 (centres undefined)	5	2
